Compound activity as filed in PubChem.
CtBP-E1A inh – blocks the CtBP interaction with E1A; 340,000 tested, 0.49% active; AlphaScreen GST-E1A/His-CtBP binding, 1536-well; hits give low values; control for the full effect not named in the record; activity change, % (concentration not given with the values); in the data active means activity change below about -65%; inconclusive means about -30% to -65%; inactive means above about -30%; also: % is scaled to controls: 0 for no effect and ±100 for the full control effect
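Protein mix (5X: 125 nM each GST-E1A, His-CtBP) was incubated with pinned compound 2 h at 37 deg C in dark, in 50 mM Tris pH 8.0 buffer with 300 mM NaCl. Glutathione donor and nickel acceptor beads followed; AlphaScreen signal read after 1 h.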
TRPV1 potentiator – potentiators of human vanilloid receptor 1 (TRPV1) | TRPV1-expressing cells, Fluo-8 calcium influx, capsaicin EC20 potentiation; host cell line not named in the record; control for the full effect not named in the record | Q8NER1 | AID 540277 | potentiation, % at 8.33 µM | 320,000 tested, 0.02% active; active means potentiation above 80%; inconclusive means 30% to 80%; inactive means below 30%; also: 0% is about no effect
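Fluo-8 calcium influx in TRPV1-expressing cells, kinetic read (ex 480/em 520 nm). Compound added and read 3 min for agonist activity, followed by capsaicin at EC20 final and 2 min further read for enhancement.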
TRPML1 ag – agonists of human TRPML1 channel. Q9GZU1. TRPML1-expressing cells, Ca2+ dye fluorescence, FDSS; host cell line not named in the record; reference of the full effect not given here. activation, % (no concentration beside the values). 410,000 tested, 0.12% active. AID 624414; in the data active = activation above about 50%; inconclusive = about 30% to 50%; inactive = below about 30%; also: 0% is about no effect; the text of the record puts the active cut at 80%
Target sequence (Q9GZU1 whole entry, looked up): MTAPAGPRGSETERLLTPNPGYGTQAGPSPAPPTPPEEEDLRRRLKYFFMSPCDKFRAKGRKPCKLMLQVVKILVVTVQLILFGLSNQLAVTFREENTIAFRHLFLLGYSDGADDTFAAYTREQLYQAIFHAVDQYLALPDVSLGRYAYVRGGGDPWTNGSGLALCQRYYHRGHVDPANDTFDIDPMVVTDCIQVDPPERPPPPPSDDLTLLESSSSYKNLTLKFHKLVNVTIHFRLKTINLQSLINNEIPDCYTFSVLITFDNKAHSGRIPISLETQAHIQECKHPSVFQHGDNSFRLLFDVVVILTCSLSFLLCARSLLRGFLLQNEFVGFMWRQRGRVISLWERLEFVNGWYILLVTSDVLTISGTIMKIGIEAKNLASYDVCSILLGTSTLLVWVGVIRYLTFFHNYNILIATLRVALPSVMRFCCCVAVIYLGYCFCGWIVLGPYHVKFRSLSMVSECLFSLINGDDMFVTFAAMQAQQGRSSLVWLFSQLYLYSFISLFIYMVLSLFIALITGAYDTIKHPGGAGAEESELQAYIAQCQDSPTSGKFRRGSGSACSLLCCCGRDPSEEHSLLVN
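Calcium fluorescence on an FDSS kinetic reader gave the read-out. Tet-induced TRPML1-DL cells were plated overnight, dye-loaded (Ca8 with quencher, 45-90 min, room temperature, dark), then read 110 s after compound addition, and again 110 s after 4uM final 54-4 (EC80).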
Six1-Eya2 blk – Six1/Eya2 interaction inhibition. Q15475+O00167. AlphaScreen GST-Six1/His-Eya2 binding, biochemical; hits give low values; control for the full effect not named in the record. activity change, % (test concentration not listed). 360,000 tested, 0.56% active. AID 651725; in the data active = activity change below about -65%; inconclusive = about -30% to -65%; inactive = above about -30%; also: % is scaled to controls: 0 for no effect and ±100 for the full control effect; compound concentration not given in the record
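Six1/Eya2 binding was read as AlphaScreen signal after compounds were pinned into GST-Six1 plus His-tagged Eya2 (5X stock 250/500 nM) in pH 8.0 Tris/NaCl/TCEP buffer, beads added, then incubated 1 h, 37 C, dark.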
TRPML1 blocker – blocks the human TRPML1 channel. activity change, negative = inhibition, % (test concentration not listed). Q9GZU1. TRPML1-inducible cells, Ca2+ dye fluorescence, FDSS; hits give low values; inhibition of EC80 agonist-evoked calcium signal. 390,000 tested, 0.02% active; in the data active means activity change below about -50%; inconclusive means about -30% to -50%; inactive means above about -30%;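 also: stimulus is agonist 54-4 at its EC80 concentration; % is scaled to controls: 0 for no effect and ±100 for the full control effect; compound concentration not given in the record; the text of the record puts the active cut at -80%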
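TRPML1-DL cells, Tet-induced overnight (~16 h, 37 °C) at 1,500 cells/well, were loaded with Ca8 no-wash dye plus quencher for 45-90 min at room temperature. Compounds were pinned during FDSS kinetic reading; agonist 54-4 at EC80 (4 uM final) then added.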
D2 PAM – human D2 receptor positive allosteric modulation; P14416; AID 624464; potentiation, % (test concentration not listed); 360,000 tested, 0.23% active; DiscoveRx D2 beta-arrestin cells, luminescence, 90 min; 100% = 57 uM dopamine signal; active = potentiation of 50% or more; inconclusive = 30% to 50%; inactive = 30% or less;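 also: compound concentration not given in the record; tested on top of an EC20 dose of dopamine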
Target sequence (P14416 whole entry, looked up): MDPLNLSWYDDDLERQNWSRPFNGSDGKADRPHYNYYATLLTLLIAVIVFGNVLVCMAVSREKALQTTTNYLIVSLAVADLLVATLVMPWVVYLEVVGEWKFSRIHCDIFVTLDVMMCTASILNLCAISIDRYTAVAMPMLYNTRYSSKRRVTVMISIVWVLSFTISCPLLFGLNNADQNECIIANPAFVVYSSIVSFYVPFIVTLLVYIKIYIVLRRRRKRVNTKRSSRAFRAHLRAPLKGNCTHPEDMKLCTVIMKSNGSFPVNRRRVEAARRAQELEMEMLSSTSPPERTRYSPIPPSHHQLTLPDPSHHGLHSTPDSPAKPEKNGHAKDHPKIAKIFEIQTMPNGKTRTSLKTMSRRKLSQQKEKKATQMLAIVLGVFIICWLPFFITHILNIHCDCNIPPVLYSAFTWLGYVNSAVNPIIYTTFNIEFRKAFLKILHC
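PathHunter D2 cells, attached overnight at 37 deg C, received compound in DMSO plus dopamine at EC20 (50 nM final) for 90 min at 37 deg C. Beta-arrestin recruitment was read as luminescence after 1 h with detection reagent at ambient temperature.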
* hit, by the source's call; u = inconclusive; x = not tested or not shown.

entry	smiles	CtBP-E1A inh	TRPV1 potentiator	TRPML1 ag
1	CCN(C(=O)CCN1C(=O)S/C(=C\c2ccccc2)C1=O)C1CCS(=O)(=O)C1 (stereo not drawn)	-3.5	2.8	0.4
2	CC(C)C(=O)N1CCC1(C)C(=O)Nc1ccc(-n2cccc2)cc1 (stereo not drawn)	-9.3	x	-0.9
3	CC1CCN(CCNC(=S)Nc2ccc(Cl)cc2)CC1	4.0	1.5	-0.6
4	CCCSc1nnc2nc(C)cc(C)n12	5.1	17.6	-0.1
5	COC(=O)Cn1c(C)nc(=O)c(-c2ccccc2)c1C	-7.8	-3.0	-0.4
6	O=C(NC1CCCCC1)C(CCc1ccccc1)N1CCc2ccccc2C1 (stereo not drawn)	3.1	x	-0.3
7	CC1CCCN(S(=O)(=O)c2ccc3c(c2)c(=O)nc2ccc(Cl)cn23)C1 (stereo not drawn)	2.9	3.8	-0.8
8	Cc1cc(N2C(=O)C(O)=C(C(=O)c3ccco3)C2c2ccccc2F)no1 (stereo not drawn)	-12.4	-11.4	1.8
9	CCOC(=O)C1=C(C)NC(=O)NC1/C=C/c1ccccc1 (stereo not drawn)	-4.8	-2.3	0.6
10	CN(CC(=O)O)Cc1nc2ccccc2[nH]1	u	1.7	0.7

entry	Six1-Eya2 blk	TRPML1 blocker	D2 PAM
1	7.4	u	-11.9
2	-12.7	x	-6.6
3	2.6	-18.9	-17.3
4	-2.5	-5.8	-3.3
5	8.2	-8.0	-9.2
6	3.9	x	-9.5
7	3.8	-5.2	-0.4
8	-10.1	1.0	-1.5
9	-8.2	-4.9	-9.0
10	-76.2*	-10.7	8.4

The listing continues.
entry	smiles	CtBP-E1A inh	TRPV1 potentiator	TRPML1 ag
11	CCOC(=O)C1CCCN(Cc2ccc3c(c2)OCO3)C1 (stereo not drawn)	-13.3	-0.2	0.2
12	CC(=O)c1ccc(NC(=O)Cn2cnc(S(=O)(=O)N3CCCC3)c2)cc1	x	-9.7	0.3
13	CN1C(=O)C2(Oc3ccccc3C3CC(c4ccccc4)=NN32)c2ccccc21 (stereo not drawn)	-2.7	6.1	0.2
14	COc1ccc(CCNC(=O)COC(=O)c2cc(=O)c3ccccc3o2)cc1	10.8	3.2	-0.4
15	COc1ccc(CN(C(=O)CN2C(=O)NC3(CCC(C)CC3)C2=O)C(C)Cc2cccs2)cc1 (stereo not drawn)	0.6	-10.6	0.4
16	Cc1c(C(=O)NCCSCc2c(F)cccc2Cl)cnn1-c1ccc(F)cc1	-9.4	-11.4	0.8
17	Cc1nnc(NC(=O)c2ccc3nccnc3c2)s1	7.3	1.4	-0.4
18	N#Cc1ccsc1NC(=O)C1CCN(C(=O)c2ccc(F)cc2)CC1	-1.3	12.7	1.3
19	CCOC(=O)[C@@H]1[C@H]2COc3cc(OC)ccc3[C@@H]2N2C(=O)N(c3cccc(F)c3)C(=O)[C@]12C	-1.5	-9.0	-1.2
20	COc1ccc(N2CCN(C(CNS(=O)(=O)c3cccs3)c3cccnc3)CC2)cc1 (stereo not drawn)	-7.8	12.3	-0.6

entry	Six1-Eya2 blk	TRPML1 blocker	D2 PAM
11	-1.4	-9.7	-16.8
12	0.6	4.8	-7.0
13	-9.6	-12.1	-11.1
14	2.5	15.1	-0.5
15	-3.1	11.3	-1.1
16	-2.1	8.7	-1.9
17	1.0	-14.8	-2.6
18	1.4	-26.2	2.1
19	-0.8	8.2	-45.2
20	-11.5	-12.6	-4.4

(further entries)
entry	smiles	CtBP-E1A inh	TRPV1 potentiator	TRPML1 ag
21	COc1cc2c(cc1N)-c1ccc(N)cc1C2=O	-5.8	x	-0.6
22	CN(C(=O)CC(NC(=O)c1ccccc1Cl)c1ccccc1)c1ccccc1 (stereo not drawn)	-5.0	-15.8	1.0
23	CN(Cc1ccccc1)C(=O)C1CCN(S(=O)(=O)c2cc([N+](=O)[O-])ccc2Cl)CC1	-12.0	-8.4	0.0
24	O=C(CC(c1ccccc1)c1ccccc1)NCCO	-5.3	-42.1	-0.5
25	CN(c1ccc(OCC(=O)N2CCOCC2)cc1)S(=O)(=O)c1ccc(Cl)cc1	-0.6	-15.8	-0.1
26	COc1ccc(NC(=O)C2(C)CCCN2C(=O)C(C)C)cc1OC (stereo not drawn)	23.4	x	1.1
27	CC(=O)c1cccc(NC(=O)CSc2nnc(-c3cccnc3)o2)c1	4.4	12.6	1.4
28	Cc1ccc(-c2nnc(SCc3ccc(C#N)cc3)n2Cc2ccco2)cc1	-5.8	6.1	-0.4
29	O=C(CCC(=O)c1cccs1)NCc1ccncc1	-4.1	1.8	-1.0
30	O=C(c1cc(-c2cccs2)on1)N1CCCc2ccccc21	2.2	-37.9	0.2

entry	Six1-Eya2 blk	TRPML1 blocker	D2 PAM
21	u	-1.0	-8.5
22	-2.5	17.1	-0.7
23	-12.7	-8.0	-3.6
24	8.9	8.8	-1.2
25	5.0	4.4	-2.1
26	19.4	3.3	-2.1
27	27.3	-25.1	-2.7
28	-4.7	39.0	-12.6
29	7.7	1.8	1.5
30	6.0	32.8	-7.9

Next records
entry	smiles	CtBP-E1A inh	TRPV1 potentiator	TRPML1 ag
31	N#CCc1c(C#N)c(N)nc(N2CCN(c3ccc(F)cc3)CC2)c1C#N	-3.7	-4.4	0.0
32	CCc1ccc(NC(=O)C2CCCN2S(=O)(=O)c2ccc3c(c2)C(C)(C)C(=O)N3C)cc1 (stereo not drawn)	2.0	-18.3	0.9
33	COc1ccc(/C=N/NC(=O)c2cccnc2)cc1CN1CCc2ccccc2C1	-19.7	19.0	-0.7
34	CS(=O)(=O)N1CCN(C(=O)c2cc(-c3cccnc3)nc3ccc(Br)cc23)CC1	x	-0.1	1.3
35	CCOC(=O)c1cc(CC)sc1NC(=O)Cc1ccccc1	15.7	4.1	1.8
36	Cc1cc2c(cc1S(=O)(=O)Nc1cccc(C)c1C)OCC(=O)N2	3.0	14.8	0.2
37	CC(=O)N(/N=C/c1cccc(C)c1)c1nc(-c2ccc(Br)cc2)cs1	-0.9	6.2	0.4
38	O=C(NC1CCCC1)C(c1cccnc1)N(C(=O)c1csnn1)C1CC1 (stereo not drawn)	2.8	2.2	-0.8
39	Cc1cc(C)c(S(=O)(=O)N2CCN(S(=O)(=O)N3CCC(C)CC3)CC2)c(C)c1	3.3	6.9	-0.2
40	Cc1ccc(-n2nc(C)c(=O)c(-c3ccccc3)c2NC(=O)c2cccs2)cc1	x	-4.5	0.2

entry	Six1-Eya2 blk	TRPML1 blocker	D2 PAM
31	-4.4	12.9	28.2
32	-4.7	-5.9	2.9
33	-13.2	22.1	-17.4
34	-9.8	17.1	-4.2
35	24.6	34.5	-6.3
36	-3.5	-0.8	-2.1
37	3.6	0.6	-17.0
38	1.8	21.4	-2.2
39	-5.9	-6.6	2.7
40	5.2	7.0	6.4

Remaining list, next part
entry	smiles	CtBP-E1A inh	TRPV1 potentiator	TRPML1 ag
41	CCN(CC(=O)Nc1ccccc1OC)C(=O)CSCC(=O)Nc1cccc(C)c1	2.7	x	0.3
42	O=C(CCNC(=O)c1ccccc1Cl)Nc1ccccc1N1CCCC1	4.2	6.0	1.7
43	COc1cccc(C(=O)NCCS(=O)(=O)NCc2ccccn2)c1	-0.7	8.4	-0.2
44	COc1cc2c(cc1OC)C(C)N(C(=O)Cn1ncc3c1-c1cc(C)ccc1OC3)CC2 (stereo not drawn)	-3.7	15.5	0.1
45	COc1ccc(CCNC(=O)COc2ccc(-c3ccc(C#N)cc3)cc2)cc1	-5.6	-12.2	1.0
46	COC(=O)Cc1ccc(OC(=O)CCS(=O)(=O)c2ccc(Cl)cc2)cc1	-3.5	9.2	0.1
47	O=C(COC(=O)c1ccccc1NCCO)NCCC1=CCCCC1	15.6	-4.4	-0.4
48	O=C(O)c1ccc(Oc2cc(Oc3ccc(C(=O)O)cc3)cc([N+](=O)[O-])c2)cc1	8.7	-5.5	-0.4
49	CCCSc1nc(=O)n2cc(C)ccc2n1	1.8	-3.8	3.1
50	CC(C)OC(=O)c1nnn(-c2nonc2N)c1CN1CCCCCC1	5.5	-12.6	0.9

entry	Six1-Eya2 blk	TRPML1 blocker	D2 PAM
41	-9.5	2.3	-1.2
42	1.9	14.4	-11.0
43	6.1	-1.1	-5.4
44	-4.4	-1.6	-4.6
45	-4.5	8.2	-19.7
46	-6.1	-18.5	-6.6
47	21.7	-0.7	-34.8
48	0.5	-3.2	-2.6
49	-2.3	-9.5	2.0
50	-5.2	18.9	4.8

Four entries already listed, arranged by their value in D2 PAM, largest number first.
item	Molecule	CtBP-E1A inh	Six1-Eya2 blk	TRPML1 blocker	D2 PAM
50	CC(C)OC(=O)c1nnn(-c2nonc2N)c1CN1CCCCCC1	5.5	-5.2	18.9	4.8
41	CCN(CC(=O)Nc1ccccc1OC)C(=O)CSCC(=O)Nc1cccc(C)c1	2.7	-9.5	2.3	-1.2
43	COc1cccc(C(=O)NCCS(=O)(=O)NCc2ccccn2)c1	-0.7	6.1	-1.1	-5.4
47	O=C(COC(=O)c1ccccc1NCCO)NCCC1=CCCCC1	15.6	21.7	-0.7	-34.8

Next compounds
entry	smiles	CtBP-E1A inh	TRPV1 potentiator	TRPML1 ag
51	CCSc1nnc2n(-c3ccc(OC)cc3)c(=O)c3c4c(sc3n12)CCCC4	-2.8	-10.2	-1.2
52	O=C(COc1ccc2c(c1)C(=O)CC1(CCCCC1)O2)NCc1ccccc1	1.0	-9.9	0.2
53	CCCCN(CCCC)Cc1ccc(N)cc1	7.4	u	-0.5
54	COc1ccccc1-c1cnc2c(Nc3cccc(OC(F)(F)C(F)F)c3)nccn12	-4.6	x	-0.3
55	Cc1ccn2c(NC3CCCCC3)c(C)nc2c1	46.0	21.4	-0.3
56	CCCCc1cc(=O)oc2cc(OCC(=O)N3C[C@H]4C[C@@H](C3)c3cccc(=O)n3C4)ccc12	-15.8	2.8	x
57	CCN(CC)S(=O)(=O)c1ccc(Cl)c(NC(=S)NC(=O)C2CCCC2)c1	-4.2	2.0	3.4
58	O=C(CCNC(=O)C1CCN(S(=O)(=O)c2ccccc2)CC1)NCc1ccccc1Cl	3.7	-13.5	0.1
59	O=C(O)CC/C(=N\Nc1ccc(S(=O)(=O)N2CCOCC2)cc1[N+](=O)[O-])c1cccs1	-25.9	5.7	1.2
60	COc1ccc(-c2cccc3c2C2CC3CCN2C(=O)OCc2ccccc2)cc1 (stereo not drawn)	4.1	x	0.3
61	Cc1cc(S(=O)(=O)n2ccnc2)c(Cl)cc1Cl	-3.0	-5.7	1.0
62	CCCCC(=O)Nc1nnc(/C=C/c2ccc(OC)cc2)s1	x	6.6	1.4
63	COC(=O)c1ccccc1NC(=O)N1c2ccccc2Sc2ccccc21	11.8	-1.2	0.0

entry	Six1-Eya2 blk	TRPML1 blocker	D2 PAM
51	0.9	0.0	-11.1
52	3.0	-7.0	-13.8
53	-0.5	1.3	-14.0
54	-6.1	x	2.0
55	23.9	-2.8	-4.6
56	3.2	x	-20.4
57	-5.8	50.9	-5.7
58	-7.1	-2.4	-5.2
59	-20.7	15.7	-8.0
60	6.1	24.0	x
61	2.9	-11.7	-1.8
62	11.0	4.4	-17.1
63	5.0	2.8	-8.4
